Screening data from PubChem BioAssay.
Calb biofilm kill – mixtures killing C. albicans biofilm; hit rate 0.02% among 120,000; inhibition, % at 7.6 µM; C. albicans biofilm persisters + clotrimazole, fluorescence viability; primary screen in compound mixtures of four per well; AID 1242;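 active means inhibition above 30.3% in the primary screen of four-compound pools, then above 30% when the compound was retested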;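 further: compounds exposed to preformed 24 h biofilms for 48 h; the number belongs to the whole pool; some results filed as inactive read as strong as hits; inactives centre near 12; 0% = biofilm with clotrimazole alone and 100% = kill control; retested singly at about 60 µM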
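Assay system: C. albicans biofilms / Medium: RPMI/MOPS medium, pH 7.0 / Schedule: biofilm formation 24 h, compound exposure 48 h, 37 °C / Measured by: Alamar Blue fluorescence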
* hit, by the source's call.

The first two records as a preview:
structure	Calb biofilm kill
Cc1cc(NC(=O)CSc2nc(-c3ccc(Cl)cc3)cs2)no1	11
C=CCn1c(SCc2nc3cc(C(=O)OC)ccc3c(=O)[nH]2)nc2sc(CC)cc2c1=O	8

The list itself, from the start:
structure	Calb biofilm kill
Cc1cc(NC(=O)CSc2nc(-c3ccc(Cl)cc3)cs2)no1	11
C=CCn1c(SCc2nc3cc(C(=O)OC)ccc3c(=O)[nH]2)nc2sc(CC)cc2c1=O	8
O=C(Nc1nnc(COc2ccccc2)s1)Nc1ccccc1F	24
COc1cc(SC#N)ccc1N=Cc1c(C)[nH]n(-c2ccc(C)cc2)c1=O	8
Clc1ccc(C2=NNC(=NCc3ccc4c(c3)OCO4)SC2)cc1	22
C=CCc1c(C)[nH]c2c(OC)cccc2c1=S	21
Cc1ccc(Nc2nnc(SCC3CCCCO3)s2)cc1 (configuration not stated)	1
CCN(CC)C(=O)C1CCCN(Cc2nc(-c3cccs3)no2)C1 (configuration not stated)	17
O=Cc1cn(CCC(=O)O)nc1-c1cccc(Br)c1	9
COC(=O)C(=C/C(C)=C/c1cccs1)C(=O)OC	4
Cc1ccc(C)c(OC(=O)c2cncc(Br)c2)c1	16
O=C(c1ccccc1NS(=O)(=O)c1cccc2cccnc12)N1CCOCC1	11
O=C(Nc1ccccc1)n1cc(-c2ccccn2)c(N2CCOCC2)n1	17
CC(C)NC(=O)C1CCN(C2CCN(C(=O)/C=C/c3cccs3)CC2)CC1	35
O=Cc1ccc(O)c2ncccc12	18
Cc1nc2sc3c(c2c(=O)[nH]1)CCCC3	17
COc1cc(C(=O)N/N=c2/sc3ccccc3n2C)cc(OC)c1OC	6
C=CCn1c(CSc2nc3ccccc3s2)nnc1SCC(=O)NCc1cccnc1	18
CC(C)N(Cc1cn[nH]c1-c1ccc(-c2ccccc2)cc1)Cc1nccn1C	5
O=C(N/N=C\c1cc(Br)c(Br)o1)c1cncc(Br)c1	5
CCOC(=O)c1c(/N=C/C2C(=O)CC(C)(C)CC2=O)sc(C)c1C	7
CC/C=C/C(=O)N1CC2(CC(c3cccc(NC(=O)CC(c4ccccc4)c4ccccc4)c3)=NO2)C[C@@H]1C(N)=O (some centres not stated)	19
O=[N+]([O-])c1cc(Cc2ccccc2)cc(C=Nc2ccc(N3CCOCC3)cc2)c1O	20
Cc1cc(C)c(C#N)c(SCc2ccc([N+](=O)[O-])cc2)n1	26
CCOC(=O)CNC(=S)n1cnc(N)n1	35
Cc1ccc(N=Cc2c(O)[nH]c3ccccc23)c([N+](=O)[O-])c1	13
O=C(/C=C/Nc1ccc(Br)cc1F)c1ccco1	9
COc1ccc(C2CC(c3ccc4ccccc4c3)=NN2C(=O)COC(=O)C2CCC(=O)N2)cc1 (configuration not stated)	24
On1c(-c2ccccc2)nc2ccccc21	27
Cc1ccccc1NC(=O)Cn1c(=O)sc2ccccc21	21
COc1ccc(N(C(=O)CNS(=O)(=O)c2ccccc2)C(C(=O)NCc2ccco2)C(C)C)cc1 (configuration not stated)	18
CN1C[C@@H]2C(c3ccccc3)C3(c4cccnc4)CC2(C3)[C@H]1c1ccccc1 (some centres not stated)	15
CCCc1nnc(NC(=S)Nc2ccccc2)s1	27
CN(C)c1ccc(NC(=O)CN2CCC(O)(c3ccccc3)CC2)cc1	26
COC(=O)Nc1ccc(S(=O)(=O)N2CCCC(C(=O)O)C2)cc1 (configuration not stated)	5
CCc1ccc(C2c3[nH]c4ccccc4c3CCN2C(=O)CN2CCN(CC)CC2)cc1 (configuration not stated)	1
O=c1c2ccccc2ncn1CCOCCOc1ccc([N+](=O)[O-])cc1	28
Cc1nnc(SCc2ccc(CSc3nnc(C)c(=O)[nH]3)cc2)[nH]c1=O	12
O=[N+]([O-])c1[nH]cnc1/C=C/c1ccccc1	6
CC(=O)N(C1=C(N2CCOCC2)C(=O)c2ccccc2C1=O)c1ccc(C(=O)O)cc1	9
COc1ccc(-c2cn3cccnc3n2)cc1	-10
Cc1onc(-c2c(F)cccc2Cl)c1C(=O)NC(=S)NC1CCS(=O)(=O)C1 (configuration not stated)	9
COc1ccc2c(C)nc(N/C(N)=N/S(=O)(=O)c3ccc(C)cc3)nc2c1	12
O=C(NCCCNc1ccc([N+](=O)[O-])cc1)C(F)(F)F	4
O=c1[nH]n(CCO)c(=O)c2cccnc12	25
O=[N+]([O-])c1ccc(N/N=C2/CCCCC2c2ccccn2)cc1 (configuration not stated)	23
O=C1CCN(CCc2ccccc2)CCN1[C@H](CSc1ccc(Br)cc1)Cc1ccccc1	16
O=C(O)CCn1cc(/C=C2\NC(=S)N(c3ccccc3)C2=O)c(-c2ccc(Br)cc2)n1	0
CCCCNC(=O)CN1C(=O)c2cccc(N)c2C1=O	5
CCN(CC)C(=S)Nc1ccc(Cl)c(Cl)c1	2
O=C(NC(=S)Nc1ccccn1)c1ccc([N+](=O)[O-])cc1	8
NC(=O)CCN1CCCCC1	16
CCOc1ccc2ncc(S(=O)(=O)c3ccccc3)c(N3CCN(c4ccc(OC)cc4)CC3)c2c1	11
COC(=O)C1SCC2C(=O)N(Cc3ccccc3)CC(=O)N21 (configuration not stated)	10
O=C(CSc1ccccc1)Nc1nnc(COc2ccc(Cl)cc2)s1	14
CCCN1CCC(=O)N([C@H](CSc2ccc(Br)cc2)c2ccccc2)CC1	20

Two entries picked at random from the list so far, as already listed:
structure	Calb biofilm kill
NC(=O)CCN1CCCCC1	16
CCCN1CCC(=O)N([C@H](CSc2ccc(Br)cc2)c2ccccc2)CC1	20

Further compounds.
structure	Calb biofilm kill
O=C(Cn1nnc(-c2ccc3c(c2)OCO3)n1)NCc1ccccc1	13
CCN(CC)S(=O)(=O)c1ccc(N=Nc2c(C)[nH]n(C(N)=S)c2=O)cc1	8
CCCn1c(C)cc(C(=O)COc2ccc(S(=O)(=O)N(CC)CC)cc2[N+](=O)[O-])c1C	14
CCOC(=O)c1[nH]c(C=O)c(C(=O)OCC)c1C	7
S=C1NC2(CCCCCC2)N=C1c1ccccc1	26
Cc1cc(=O)[nH]c(N/N=C/c2cn(CCC#N)nc2-c2ccccc2)n1	9
O=C(Nc1nccs1)c1ccc([N+](=O)[O-])cc1	4
O=C(Nc1cccc(NC(=O)c2ccco2)c1)c1ccc([N+](=O)[O-])cc1	17

4 structures already listed, ordered by SMILES length, rising.
structure	Calb biofilm kill
CCOC(=O)c1[nH]c(C=O)c(C(=O)OCC)c1C	7
O=C(Nc1nccs1)c1ccc([N+](=O)[O-])cc1	4
Cc1cc(=O)[nH]c(N/N=C/c2cn(CCC#N)nc2-c2ccccc2)n1	9
CCN(CC)S(=O)(=O)c1ccc(N=Nc2c(C)[nH]n(C(N)=S)c2=O)cc1	8

(listing goes on)
structure	Calb biofilm kill
O=C(c1cc2ncc(CCCl)cn2n1)N1CCCCCC1	9
Cc1ccc(N=c2c([N+](=O)[O-])nn(-c3ccc4c(c3)OCCO4)n2O)cc1F	2
O=C(COc1ccc(Cl)cc1)Nc1cccc(-c2ccc3nncn3n2)c1	15
CC(=O)Cc1nsc(NC(=O)c2ccc(-c3ccc(F)cc3)o2)n1	-1
C/C(=N\Nc1nc(C(=O)O)cs1)c1ccccc1	11
COc1ccc(N2CCN(c3nc(-c4cccs4)nc4ccccc34)CC2)cc1	10
CCOC(=O)Cc1nnc(NC(=O)C23CC4CC(CC(C4)C2)C3)s1	3
CCOC(=O)c1c(C)[nH]c(C(=O)CC(=O)OC)c1C	59
CC(=O)CC1=NC(C)(C)Cc2ccccc21	9
COc1ccc(CNC(=O)c2cc(C)nc3ccccc23)cc1OC	4
OCCC1CN(Cc2cccn2-c2nccs2)CCN1CCc1ccccc1 (configuration not stated)	15
Cc1cccc(-c2nnc(SCC(=O)Nc3nc4c(s3)CCCC4)n2C)c1	6
N/C(=N\OC(=O)c1cccs1)C1(c2ccc(Cl)cc2Cl)CC1	14
Oc1c(Br)cc(Br)cc1CNc1ccccn1	10
COC(=O)C1=C(C)N(c2ccc(OC)cc2)C(C)=C(C(=O)OC)C1c1ccccc1	20
CC(=O)N(Cc1c(C#N)c2ccccc2n1C)c1ccccc1	13
CCSC1=N/C(=C\c2cccnc2)C(=O)N1c1ccccc1	11
CC1(c2ccc(C#N)cc2)NC(=O)N(CC(=O)Nc2cc(S(=O)(=O)N3CCOCC3)ccc2Cl)C1=O (configuration not stated)	13
CN(Cc1ccc(F)cc1)C(=O)c1cc(COc2ccc(F)cc2F)on1	19
O=C(CSc1nccc(=O)[nH]1)NC1CCCc2ccccc21 (configuration not stated)	17
COCCCN=C1NN=C(c2cc(C)n(Cc3ccco3)c2C)CS1	8
CCSC1=NCCN1C(=O)c1ccc(S(=O)(=O)N(C)C)cc1	16
COc1ccccc1NC(=O)c1ccc(-c2ccccc2[N+](=O)[O-])o1	6
COc1cc(NC(=O)c2nccn2C)cc(C(=O)Nc2cccc(C(F)(F)F)c2)c1	14

A run of entries from further up:
structure	Calb biofilm kill
CCSC1=NCCN1C(=O)c1ccc(S(=O)(=O)N(C)C)cc1	16
COc1ccccc1NC(=O)c1ccc(-c2ccccc2[N+](=O)[O-])o1	6
COc1cc(NC(=O)c2nccn2C)cc(C(=O)Nc2cccc(C(F)(F)F)c2)c1	14

More structures follow:
structure	Calb biofilm kill
COC1=C(N)C(=O)c2nc(-c3nc(C(=O)O)c(C)c(-c4ccc(OC)c(OC)c4O)c3N)ccc2C1=O	26
O=C(N/N=C/C=C\c1ccccc1[N+](=O)[O-])c1cccs1	19
COc1ccc(CSc2nc(C)[nH]c2[N+](=O)[O-])cc1[N+](=O)[O-]	27
CCOC(=O)C(=O)NNc1ccccc1C	15
CCCC1=C([O-])C2N=CC=CC2=[N+](c2ccccn2)C1=O (configuration not stated)	9
Cc1ccsc1C(=O)OCC(=O)Nc1cccc(S(=O)(=O)N2CCOCC2)c1	11
CCOC(=O)c1c(C)nc(C)c(C(=O)OCC)c1-c1ccc(O)c(OC)c1	32
CC(NC(=O)C1CC1)C(c1cccs1)N1CCOCC1 (configuration not stated)	18
CC1CN(S(=O)(=O)c2ccc(C(=O)Nc3nccs3)cc2)CC(C)O1 (configuration not stated)	12
CCOC(=O)c1ccccc1NC(=S)N1CCC(C)CC1	2
Nc1nnc(-c2cccc(F)c2)s1	14
COc1cccc(-c2cc(C(F)(F)F)n3ncc(C(=O)N4CCc5ccccc5C4)c3n2)c1	14
Cc1cc(C)c(S(=O)(=O)c2ccccc2)c(N2CCOCC2)n1	18
O=C(CSc1nccc(=O)[nH]1)NN(c1ccccc1)c1ccccc1	0
CC(C)CCNC(=O)C(c1ccncc1)N(C(=O)Cn1nnc(-c2ccc(F)cc2)n1)c1ccccc1F (configuration not stated)	8
O=S(=O)(c1ccc(Br)cc1)c1nc(-c2ccco2)oc1NCC1CCCO1 (configuration not stated)	-17
Cc1ccc(Sc2ncccc2C(=O)NC2CCCCCC2)cc1C	15
CC(C)OC(=O)NS(=O)(=O)c1cccc([N+](=O)[O-])c1	13
O=C1C2C3C=CC(C4CC34)C2C(=O)N1/N=C/c1c[nH]c2ccccc12 (configuration not stated)	-7
COc1ccc(-c2ccc(Nc3ccc(C(=O)N4CCOCC4)cc3)nn2)cc1OC	15

These rows are one share of the data; the hit share may differ from the screen's.
